UUG fidelity: modulators of yeast start codon fidelity, primary screen, whole organism, S. cerevisiae, single point, plate reader; S. cerevisiae UUG-firefly luciferase reporter, luminescence/redox ratio; activity score, % at 18.7 µM; actives 0.13% (n = 350,000); AID 602363, 2012;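 active = replicate mean at a twofold rise or more, about +100% in these data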;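 note: firefly luciferase made from a UUG start codon reports start codon fidelity; reporter light over untreated wells divided by growth signal over untreated wells; some hits fall short of that in this replicate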
Rce1 inh: yeast Rce1p protease inhibitors, primary screen, biochemical, fluorescence, cell-free homogeneous | CAAX prenyl protease 2 (Saccharomyces cerevisiae (strain ATCC 204508 / S288c)), Q03530 | yeast membranes, quenched prenylated peptide cleavage fluorescence | calls only | actives 0.27% (n = 290,000);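 active = fall in fluorescence gain of 50% or more versus controls, with final raw signal at or below 3038400; inconclusive = same 50% fall but final raw signal above 3038400; inactive = fall in fluorescence gain under 50%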;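 note: plate controls were neutral control wells for no effect and wells lacking membranes for full effect; tested at 10 µM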
Target sequence (Q03530 whole entry, looked up): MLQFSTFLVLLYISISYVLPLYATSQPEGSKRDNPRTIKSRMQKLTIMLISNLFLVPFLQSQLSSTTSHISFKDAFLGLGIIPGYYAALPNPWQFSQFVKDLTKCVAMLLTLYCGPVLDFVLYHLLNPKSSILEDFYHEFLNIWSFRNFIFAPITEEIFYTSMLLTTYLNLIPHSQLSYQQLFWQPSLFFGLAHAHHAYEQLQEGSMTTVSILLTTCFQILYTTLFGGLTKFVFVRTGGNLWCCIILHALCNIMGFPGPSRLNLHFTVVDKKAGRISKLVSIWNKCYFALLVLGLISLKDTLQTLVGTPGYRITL
HIV Env fusion: inhibitors of HIV-1 Env-driven cell-cell fusion, primary screen, HeLa-JRFL effector, CEM21 target cells, luciferase | inhibition, % at 12.3 µM | actives 1.1% (n = 360,000) | AID 651610, 2012;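 active = mean replicate inhibition score of at least 50 and every replicate individually at or above 50; inconclusive = only one of the two criteria met; inactive = mean below 50 and not all replicates reaching 50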;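 note: 0% = plate neutral controls and 100% = maraviroc near 300 nM; one replicate is shown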
MT1-MMP act inh: blockers of MT1-MMP proenzyme processing, primary screen, HT1080 RFP-PRO-GFP cells, GFP/RFP fluorescence | GFP/RFP ratio change, % at 20 µM | Matrix metalloproteinase-14 (Homo sapiens), P50281 | actives 0.061% (n = 360,000) | AID 651647, 2012 | GFP/RFP ratio fluorescence, overnight; percent of plate control window, DMSO zero;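 active = GFP/RFP ratio change of at least 30% with cell ATP level not reduced by more than half and red fluorescence within 50% of control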; note: strong numbers were not always called active
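Assay system: HT1080 RFP-PRO-GFP cells. Benchmarks: DMSO vehicle wells and RFP-L50D-GFP reporter cell wells. Times: overnight cell settling, then overnight compound exposure, 37 °C, 5% CO2. Compound: 20 µM single dose, 1% DMSO. Read-out basis: GFP/RFP fluorescence ratio.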
eIF4H FP inh: human eIF4H binding inhibitors, primary screen, translation initiation inhibitor project, biochemical, uHTS, fluorescence polarization; Eukaryotic translation initiation factor 4H (Homo sapiens), Q15056; eIF4H fluorescence polarization binding assay; inhibition, % at 35 µM; actives 0.94% (n = 290,000); AID 2012, 2009;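 active = 50% or more with normal probe brightness, or confirmed in later tests; inconclusive = above 50% with abnormal brightness, or retests that disagree; inactive = below 50% or failed in later tests; about a fifth of its hits are not listed in these tables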;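 note: calls also rest on retests at 20 µM and on dose response follow-up; 0% = protein and probe with vehicle and 100% = probe without protein; strong numbers were not always called active; many hits fall short of the cut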
PABP polyA inh: PABP poly(A) RNA binding inhibitors, primary screen, biochemical, fluorescence polarization, uHTS. Polyadenylate-binding protein 1 (Homo sapiens), P11940. inhibition, % at 35 µM. actives 1% (n = 290,000);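 active = 50% or more with normal probe brightness, or confirmed in later tests; inconclusive = above 50% with abnormal brightness, or retests that disagree; inactive = below 50% or failed in later tests; about a fifth of its hits are not listed in these tables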;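 note: calls also rest on retests at 20 µM and on dose response follow-up; controls were probe without protein and protein plus probe with vehicle; some compounds called inactive have numbers as strong as hits; many hits fall short of the cut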
Target sequence (P11940 whole entry, looked up): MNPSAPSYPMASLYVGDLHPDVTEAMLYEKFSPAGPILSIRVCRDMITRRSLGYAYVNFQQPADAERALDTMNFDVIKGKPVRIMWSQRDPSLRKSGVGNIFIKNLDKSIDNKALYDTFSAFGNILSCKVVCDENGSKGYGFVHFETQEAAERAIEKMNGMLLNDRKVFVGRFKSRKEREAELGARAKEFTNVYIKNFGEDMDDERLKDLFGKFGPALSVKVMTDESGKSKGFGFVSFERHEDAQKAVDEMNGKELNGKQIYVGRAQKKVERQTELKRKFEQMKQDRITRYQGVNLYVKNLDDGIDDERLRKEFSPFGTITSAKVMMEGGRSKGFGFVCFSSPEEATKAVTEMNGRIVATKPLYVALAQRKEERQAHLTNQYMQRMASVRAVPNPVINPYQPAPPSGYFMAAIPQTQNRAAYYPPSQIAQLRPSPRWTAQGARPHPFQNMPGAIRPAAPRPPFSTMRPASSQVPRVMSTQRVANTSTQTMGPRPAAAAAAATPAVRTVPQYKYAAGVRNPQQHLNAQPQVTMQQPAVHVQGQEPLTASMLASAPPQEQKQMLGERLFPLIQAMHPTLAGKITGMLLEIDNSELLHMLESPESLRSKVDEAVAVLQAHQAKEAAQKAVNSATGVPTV
CSC inhib: cancer stem cell viability inhibitors, primary screen, luminescence; cancer stem cell-like cells viability; inhibition, % at 7.5 µM; actives 1.1% (n = 300,000);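 active = mean at 75% or more and at least half the replicates too; inconclusive = mean and replicates disagree; tested in HMLE shEcad cells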;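 note: 0% = median of negative and 100% = median of positive control wells; the first replicate is given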
PABP polyA inh retest: second read-out of PABP polyA inh, no call of its own (marks repeat the call); inhibition, %; compound at 20 µM; confirmation repeats;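 mean of two retest wells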
MT1-MMP act inh RFP: also measured in MT1-MMP act inh; calls as there; RFP signal change, %; measured here: RFP expression control read;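 0 = vehicle wells; hits needed this value within 50% of zero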
Active calls of the source: *; i = inactive; ? = inconclusive; nt = no result given.

SMILES | UUG fidelity | Rce1 inh | HIV Env fusion | MT1-MMP act inh | MT1-MMP act inh RFP | eIF4H FP inh | PABP polyA inh | CSC inhib | others
COc1ccccc1-c1nn2c(C(F)(F)F)nnc2s1 | -11 | i | -254 | 1 | -2 | -10 | -3 | -6
CCc1ccc(S(=O)(=O)Nc2cc3c(cc2C)n(C)c(=O)n3C)cc1 | -1 | i | -20 | -5 | -28 | -1 | 0 | 34
COc1cccc(NC(=O)N2CCN(C(=O)C(Cc3ccc(OC)c(OC)c3)NC(C)=O)CC2)c1 (stereo not given) | -4 | i | nt | 2 | 3 | -5 | -3 | nt
CCC(Sc1nc2ccccc2[nH]1)C(=O)Nc1cc(C)on1 (stereo not given) | -16 | i | nt | -1 | -3 | 8 | 6 | nt
O=C(O)c1ccc2cc[nH]c2c1 | -12 | i | nt | 7 | 4 | -2 | 6 | -10
O=c1ccc2[n+]([O-])c3ccc(O)cc3oc-2c1 | nt | i | 30 | 46 | 57 | ? | ? | nt
O=C(c1ccncc1)c1ccc(NS(=O)(=O)c2ccc(Br)s2)cc1 | -23 | i | -13 | -11 | -6 | 0 | -4 | 5
Cc1cc(=O)[nH]c(SCc2nc3ccccc3s2)n1 | -8 | i | nt | -2 | 2 | 1 | -9 | 8
COCCCn1c(=O)c2sccc2n2c(CCCC(=O)NCc3cccc(OC)c3)nnc12 | -16 | i | 3 | -3 | 1 | -8 | 14 | -5
O=C(Nc1cccc(Cl)c1)C1=Cc2cc(Cl)ccc2OC1 | -2 | i | nt | 4 | -3 | -1 | 7 | 6
COc1ccc(/C=C/C(=O)NCCNC(=O)c2ccccc2)cc1OC | -1 | i | -2 | -1 | 2 | 12 | 4 | -11
CCOc1cc(C2C3=C(CCCC3=O)NC3=C2C(=O)CCC3)ccc1OCCO | -18 | i | nt | -2 | 1 | -8 | 7 | -7

Grouped by structure: those above with two or more sulfur atoms
SMILES | UUG fidelity | Rce1 inh | HIV Env fusion | MT1-MMP act inh | MT1-MMP act inh RFP | eIF4H FP inh | PABP polyA inh | CSC inhib | others
O=C(c1ccncc1)c1ccc(NS(=O)(=O)c2ccc(Br)s2)cc1 | -23 | i | -13 | -11 | -6 | 0 | -4 | 5
Cc1cc(=O)[nH]c(SCc2nc3ccccc3s2)n1 | -8 | i | nt | -2 | 2 | 1 | -9 | 8

Three neighbouring compounds out of the list so far, quoted:
SMILES | UUG fidelity | Rce1 inh | HIV Env fusion | MT1-MMP act inh | MT1-MMP act inh RFP | eIF4H FP inh | PABP polyA inh | CSC inhib | others
COc1ccccc1-c1nn2c(C(F)(F)F)nnc2s1 | -11 | i | -254 | 1 | -2 | -10 | -3 | -6
CCc1ccc(S(=O)(=O)Nc2cc3c(cc2C)n(C)c(=O)n3C)cc1 | -1 | i | -20 | -5 | -28 | -1 | 0 | 34
COc1cccc(NC(=O)N2CCN(C(=O)C(Cc3ccc(OC)c(OC)c3)NC(C)=O)CC2)c1 (stereo not given) | -4 | i | nt | 2 | 3 | -5 | -3 | nt

Continuation:
SMILES | UUG fidelity | Rce1 inh | HIV Env fusion | MT1-MMP act inh | MT1-MMP act inh RFP | eIF4H FP inh | PABP polyA inh | CSC inhib | others
O=C(NCCc1ccccc1)C1CCN(C2CCN(Cc3ccc(CO)o3)CC2)CC1 | nt | i | 1 | 0 | 7 | ? | 9 | nt | PABP polyA inh retest=41
CC(OC(=O)c1ccc(Cl)c(S(N)(=O)=O)c1)C(=O)NCC1CCCCC1 (stereo not given) | -12 | nt | nt | 3 | 1 | nt | nt | 15
COc1cccc(C(C[N+](=O)[O-])c2c(C)[nH]n(-c3ccccc3)c2=O)c1 (stereo not given) | -23 | i | 2 | -2 | 0 | -3 | 0 | -12
CCCNC(=O)N1CCC(n2nccc2NC(=O)CCOc2ccccc2)CC1 | -1 | i | 20 | nt | nt | -9 | 8 | 13
COC(=O)Cc1ccc(NC(=O)c2ccc3c(c2)C(=O)N(Cc2ccco2)C3=O)cc1 | -8 | i | -13 | 1 | -1 | 0 | 0 | -10
CC(NC(=O)[C@@H](NC(=O)[C@@H]1Cc2ccccc2CN1)C(C)C)c1ccccc1 (stereo not given in full) | -18 | i | 4 | -1 | -2 | -14 | 6 | 6
COC(=O)c1ccc(-c2noc(CN3C[C@H]4CC[C@H]3C4)n2)cc1 | -7 | i | -10 | 0 | 0 | -13 | -7 | 2
CCOc1ccc(OCCN2C(=O)NC3(CCCc4ccccc43)C2=O)cc1 (stereo not given) | -1 | i | -46 | 2 | -6 | -5 | -5 | -21
COc1ccc(NC(=O)CN2CCN(Cc3ccccc3)CC2)cc1 | -24 | i | 1 | 1 | -7 | 4 | 10 | -10
COc1ccc(C2=NCCn3nc4ccccc4c32)cc1 | -6 | nt | -108 | 4 | 7 | nt | nt | -10
COC(=O)c1cc(-c2c(C)oc3cc(OC(C)C)ccc3c2=O)c(C)o1 | -3 | i | nt | 4 | -2 | -2 | -2 | 11
O=C(COC(=O)/C=C/c1ccccc1Cl)NCc1ccccc1 | -6 | i | nt | 4 | 7 | 0 | -5 | -6

By substructure: the compounds so far containing an aryl thioether with sulfur outside any ring
SMILES | UUG fidelity | Rce1 inh | HIV Env fusion | MT1-MMP act inh | MT1-MMP act inh RFP | eIF4H FP inh | PABP polyA inh | CSC inhib | others
CCC(Sc1nc2ccccc2[nH]1)C(=O)Nc1cc(C)on1 (stereo not given) | -16 | i | nt | -1 | -3 | 8 | 6 | nt
Cc1cc(=O)[nH]c(SCc2nc3ccccc3s2)n1 | -8 | i | nt | -2 | 2 | 1 | -9 | 8

Later entries:
SMILES | UUG fidelity | Rce1 inh | HIV Env fusion | MT1-MMP act inh | MT1-MMP act inh RFP | eIF4H FP inh | PABP polyA inh | CSC inhib | others
Cc1ccc(F)cc1C(=O)N1CCCC(c2cc(C(=O)Nc3ccccc3)no2)C1 (stereo not given) | -4 | nt | 11 | 7 | -8 | nt | nt | nt
N#CCc1nn(-c2ccccc2)c2ncnc(N)c12 | nt | i | -70 | -3 | 2 | -7 | -5 | -5
CCC(=O)NCCn1c(C)cc2ccccc21 | -5 | i | nt | 5 | 12 | 106* | 75* | -2
CN1CCC(=NNC(=O)CN(c2cccc(Br)c2)S(C)(=O)=O)CC1 | nt | i | 4 | 4 | 9 | 10 | 28 | -8
CCOCCCNc1ccc(N2C(=O)C3CCCCC3C2=O)cc1[N+](=O)[O-] (stereo not given) | -6 | i | -4 | 6 | 0 | -1 | 13 | 5
CCCCCC(=O)NC(=S)Nc1ccc(NC(=O)c2ccco2)cc1 | nt | i | 9 | 10 | 3 | 4 | -9 | 17
CCCCn1c(N)c(N(CCOC)C(=O)CSCc2ccc(C)cc2)c(=O)[nH]c1=O | -3 | i | -4 | 0 | 3 | nt | nt | 35
CCOC(=O)Cc1csc(SCC(=O)Nc2ccc3[nH]c(=O)[nH]c3c2)n1 | -11 | nt | -5 | -1 | 5 | nt | nt | 5
Cc1nc(NC(=O)/C=C/c2ccc(C(C)(C)C)cc2)sc1C(=O)N(C)C | nt | i | 14 | -1 | -4 | -1 | -16 | 48
CCC1CN(C(=O)N2CCC(C(=O)NCc3cc(OC)c(OC)c(OC)c3)CC2)c2ccccc2O1 (stereo not given) | -6 | i | 0 | -2 | -1 | -5 | 3 | -12
NC(N)=N/N=C/c1ccc(Cl)c([N+](=O)[O-])c1 | nt | i | 9 | -5 | -7 | -3 | -9 | -1
CCN(CC)c1ccc(NC(=O)COC(=O)C23CCC(=O)N2c2ccccc2S3)cc1 (stereo not given) | -25 | i | -9 | -4 | 1 | 7 | -6 | -13
c1nc(NCC2CCCO2)c2[nH]cnc2n1 (stereo not given) | -8 | i | -16 | 2 | 3 | nt | nt | nt
CS(=O)(=O)N(Cc1cc2ccccc2[nH]c1=O)C1CCCCC1 | -11 | i | 34 | -11 | -4 | -3 | -5 | -10
O=C(CN1C(=O)CC(c2ccccc2)=Nc2ccccc21)NCc1ccco1 | -11 | i | 7 | -2 | -3 | -2 | -6 | -8
OC[C@@H]1CN(Cc2ccc(Cl)cc2)C[C@H](n2cnc3c(N4CCCC4)ncnc32)O1 | -7 | nt | -18 | -5 | -6 | nt | nt | nt
Cc1cccc2c1NC(=O)C2=O | -12 | nt | 14 | -3 | 9 | nt | nt | nt
CCOCC(=O)Nc1cc(C(=O)Nc2ccccc2)ccc1Cl | -14 | i | -71 | -6 | -2 | 2 | 2 | -3
Cc1cc(C)n2nc(SC(C)C(=O)N(C)C3CCCCC3)nc2n1 (stereo not given) | -19 | nt | 22 | -2 | 0 | nt | nt | -4
Cc1ccccc1Cn1nc(C)c(NC(=O)c2cc(CC(C)C)on2)c1C | nt | i | 6 | 0 | -8 | -12 | 4 | -12
c1ccc(Cc2ccc(OCCn3ccnc3)cc2)cc1 | -11 | i | 8 | -6 | -28 | -4 | -5 | -13
COc1ccc(CC(=O)OCC(=O)Nc2cccc(Cl)c2)cc1 | nt | i | 2 | 2 | 6 | 7 | ? | -7
CC(=O)Nc1sc(NC(=O)c2ccc(Cl)cc2)nc1-c1cccs1 | -7 | i | nt | 3 | -7 | -9 | -6 | -6
Cc1cccc(C(=O)N2CCC(N3CCC(C(=O)N4CCOCC4)CC3)CC2)c1 | -1 | i | -9 | 0 | 4 | 11 | -7 | -8
COc1ccc(N2CC(O)(c3ccc(F)cc3)[N+]3=C2CCCC3)cc1 (stereo not given) | -7 | i | -9 | -8 | 2 | 3 | 3 | 19
Cc1ccc(/C=C2\CCOC2=O)cc1 | -18 | i | -13 | 0 | 1 | -4 | 16 | -12
Cc1ccc(S(=O)(=O)N2CC3(O)CN(C(=O)OC(C)C)N(C(=O)OC(C)C)CC3(OC(=O)NCc3ccccc3F)C2)cc1 (stereo not given) | -2 | nt | 7 | 1 | -1 | nt | nt | nt
NNC(=O)Cn1c(-c2ccccn2)nc2ccccc21 | -5 | i | 3 | -1 | 0 | -2 | -3 | -12
COCC(=O)Nc1ccc(C)c(Cl)c1 | nt | i | -48 | 1 | 1 | 2 | 0 | -11
COc1ccc(N=C2SC(C(=O)O)CC(=O)N2C)cc1 (stereo not given) | nt | i | nt | 5 | 1 | -1 | 13 | 7
O=C(CSc1nc(SCC(=O)NCc2ccccc2)n(-c2ccccc2)n1)NCc1ccccc1 | -5 | i | nt | 5 | -3 | 4 | -1 | -6
Cc1ccc(S(=O)(=O)N2CCC(C(=O)N[C@H](C(=O)N3CCN(C)CC3)C(C)C)CC2)cc1 | -10 | i | 11 | 0 | 2 | -2 | -1 | nt
Nc1ccc(S(=O)(=O)Nc2nccc(/C=C/c3ccc(Cl)cc3Cl)n2)cc1 | -10 | i | -3 | -6 | -3 | -6 | -6 | -5
CCCCNC(=O)C1(C)CCN1C(=O)c1cc(-c2cccs2)oc1C (stereo not given) | -7 | nt | -17 | 0 | -4 | nt | nt | nt
Cc1cc(C)n(-c2nnc(SCC(=O)NC3CCCC3)c3ccccc23)n1 | nt | i | 49 | -3 | -8 | 2 | -5 | -13

No enrichment for hits; overall some 2.9% were active at least once.
